Screens: PubChem, several laboratories
Autofluor counter – flagged as autofluorescent in microsphere protease counterscreen; compound autofluorescence counterscreen, microsphere flow cytometry; hits give high values; fluorescence intensity (no concentration beside the values); 360,000 compounds, 3.1% hits; AID 624483;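 active means at least 3 SD above the mean of all compounds, about 16000 in these data; inconclusive means too few beads counted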;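 further: 100 nL of 1 mM stock went into each well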
Sa RN4220 lethal – kills Staphylococcus aureus RN4220; S. aureus RN4220 growth, OD600, 16 h; inhibition, % (test concentration not listed); 330,000 compounds, 0.33% hits; AID 1259311;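 active means z-score of -3 or lower and OD600 up to 0.18 on both plates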;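 further: plate controls were untreated cells for no effect and reference antibiotic for full effect; stock transfer was 100 nL into about 80 µL; one replicate is shown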
Sa ugtP lethal – growth inhibition of S. aureus ugtP deletion strain. S. aureus RN4220 ugtP deletion, OD600 growth, 16 h; some inactives read as strong as hits. 330,000 compounds, 0.54% hits. AID 1259309. growth inhibition, % (test concentration not listed);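 active means z-score under -3 and OD600 up to 0.15 on both plates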;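 further: plate controls were untreated wells for no effect and antibiotic for full effect; wells of about 80 µL received 100 nL stock; the first replicate is given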
BJeLR viability – kills HRASV12-expressing BJeLR cells | inhibition, % (test concentration not listed) | BJeLR (HRASV12) viability, CellTiter-Glo ATP luminescence, 48 h; reference of the scale not given here | 300,000 compounds, 0.17% hits;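 active means replicate mean above 50%; inconclusive means above 50% but judged a plate artefact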;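 further: 50 nL library stock added to about 25 µL; numbers are from one replicate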
PrP 5UTR inh – inhibition of PrP 5' UTR reporter expression. AID 488862. inhibition, % (concentration not given with the values). cell-based PrP 5' UTR mRNA reporter, plate reader. 340,000 compounds, 0.35% hits;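 active means every replicate at 50% or more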;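 further: 0 = median of the neutral control wells; tested in H4 reporter cells; numbers are from one replicate; inactives centre near -14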
Mtb hypoxia inh – inhibitors of hypoxia-regulated fluorescent reporter in Mycobacterium tuberculosis | M. tuberculosis hypoxia-regulated fluorescent reporter, fluorescence | fluorescence inhibition, % (no concentration beside the values) | 300,000 compounds, 0.1% hits;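 active means 35 to 45% if threefold the growth effect, above 45% if 1.5-fold the growth effect; inactive means the rest, general growth blockers included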;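 further: wells of about 50 µL received 100 nL stock; 0% = vehicle wells and 100% = reference inhibitor wells; whole bacteria with a GFP reporter of the hypoxia response; strong numbers were not always called active; many hits fall short of the cut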
Mtb hypoxia inh growth – further read-out of Mtb hypoxia inh, marked with its call; growth inhibition, %; measured here: M. tuberculosis growth (absorbance);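 0% = vehicle and 100% = reference antibiotic; read after six days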
* marks the source's active call; other numbers are inactive results; ? = inconclusive; nt = no result given; & = joins results of further samples.

SMILES	Autofluor counter	Sa RN4220 lethal	Sa ugtP lethal	BJeLR viability	PrP 5UTR inh	Mtb hypoxia inh	Mtb hypoxia inh growth
NC(=S)NC1CC2CC1C1C=CCC21 (stereo unspecified)	5500	3.3	-1	2	-26	3	14
O=C(COc1ccccc1)NCc1nnc(SCC(=O)Nc2nccs2)n1-c1ccccc1	5664	6.4	3	-17	-11	0	-2
CCN1/C(=C2\C(=O)N(C)C(=S)N2C)C=Cc2ccccc21	2104	2.5	2	11	0	21	-12
CCN(CC)c1nc(C)c(C(=S)Nc2cc([N+](=O)[O-])ccc2Cl)s1	6921	1.9	-12	-4	-25	-4	10
CCC(c1nnnn1Cc1ccc(F)cc1)N1CCN(C2CCCCC2)CC1 (stereo unspecified)	4473	4.8	5	2	-3	nt	nt
Cc1ccccc1NC(=O)CN1C(=O)N/C(=C\c2ccccc2OCc2ccc(C(=O)O)cc2)C1=O	4033	5.0	-2	-1	-19	7	1
O=C(NCCN1CCOCC1)/C(=C\c1ccc(Br)cc1)NC(=O)c1cccs1	2067	5.4	2	-14	-12	-3	7
S=C(NCCc1c[nH]c2ccccc12)NC1CCCC1	2204	5.9	-3	1	-27	-6	14
COc1ccc(Cl)cc1N(C(=O)c1ccco1)C(C(=O)NC1CCCC1)c1ccco1 (stereo unspecified)	3539	3.2	-2	-14	1	13	0
CNC(=O)c1cccc(NC(=O)c2cc(-c3ccccc3)nc3c2cnn3C(C)C)c1	nt	4.3	-4	nt	-6	4	2
CS(=O)(=O)c1ccccc1C(=O)Nc1cc(Cl)ccc1-n1cncn1	?	1.6	1	2	-10	0	-6
c1cn2cc(CSC3CCCCC3)nc2s1	3687	-9.6	13	-2	-58	24	-19
Cc1ccc(S(=O)(=O)N2CCN(C(=O)COC(=O)CSc3ccc(C)c(C)c3)CC2)c(C)c1	5434	8.3	3	nt	-17	11	0
O=C(CN1C(=O)c2ccccc2C1=O)Nc1cccc(Cl)c1	3439	1.1	-4	4	-16	2	17
O=C1c2cnc3nc(SCc4cccc(Cl)c4)nn3c2CC2c3ccccc3CCN12 (stereo unspecified)	21140*	-0.3	-15	0	-31	17	8
S=C1NC[C@H](Cc2ccccc2)N1CCc1cccc2ccccc12	4007	nt	nt	4	0	nt	nt
Cc1ccc([N+](=O)[O-])cc1S(=O)(=O)N1CCCN(C)CC1	4164	6.8	11	-6	-20	-3	8
Cc1n[nH]c(=S)n1Cc1ccccc1	4592	-0.6	5	22	-19	8	7
CCCCN=C1NN=C(c2cc3ccccc3o2)CS1	2768	-1.2	-6	1	-52	4	-1
Cc1nc2ccccc2c(=O)n1-c1ccc(Cl)cc1Cl	nt	2.3	10	-8	12	8	0
CC(OC(=O)CNC(=O)c1ccc(Br)cc1)C(=O)NC1CCCCC1C (stereo unspecified)	8971	1.9	-3	nt	-1	5	-5
COc1cc(OC)cc(-c2c(C#Cc3ccsc3)c3cc(-c4ccc(OC)nc4)ccc3n2C)c1	2957	0.6	3	nt	-7	6	8
O=C(Nc1ccccc1C(F)(F)F)c1cc(-c2ccco2)on1	3266	-4.9	-3	0	-28	-9	-7
CCN1CCN(S(=O)(=O)c2ccc(Cl)c(C(=O)NC3CCCCC3)c2)CC1	nt	0.6	3	6	-7	-2	9
S=C(NN=Cc1cccs1)NC1CC2CCC1C2 (stereo unspecified)	nt	-3.9	39	nt	nt	6	5

The last 3 records of the part above come first, to join the parts:
SMILES	Autofluor counter	Sa RN4220 lethal	Sa ugtP lethal	BJeLR viability	PrP 5UTR inh	Mtb hypoxia inh	Mtb hypoxia inh growth
O=C(Nc1ccccc1C(F)(F)F)c1cc(-c2ccco2)on1	3266	-4.9	-3	0	-28	-9	-7
CCN1CCN(S(=O)(=O)c2ccc(Cl)c(C(=O)NC3CCCCC3)c2)CC1	nt	0.6	3	6	-7	-2	9
S=C(NN=Cc1cccs1)NC1CC2CCC1C2 (stereo unspecified)	nt	-3.9	39	nt	nt	6	5
O=C1c2ccccc2NC(c2cccc(O)c2)N1O (stereo unspecified)	4067	4.6	7	-10	2	-3	2
COc1ccc(-c2nc(Cn3c(SCc4cccc(F)c4)nc4ccncc43)c(C)o2)cc1OC	5905	15	3	1	-11	-7	14
CN(C)CCCNc1oc(-c2ccc(Cl)cc2)nc1S(=O)(=O)c1ccccc1	3640	-1.6	1	nt	4	6	17
O=C(Nc1ccc(Cl)cc1)Nc1nc(-c2ccccc2O)cs1	3982	59	67	2	-9	-1	4
Cc1ccc(-c2nc(C#N)c(NCc3ccco3)o2)cc1	2769	-1.6	-1	1	-30	nt	nt
CCn1ncc(NC(=O)Nc2cccc(C(F)(F)F)c2)c1C(N)=O	8038	5.9	3	nt	-5	2	5
O=C(CN1CCCCCC1)N/N=C/c1ccc(Cl)c(Cl)c1	2139	nt	nt	3	-26	nt	nt
CCn1c(O)c(/C=C2\C=NN=C2c2ccc(C)cc2)sc1=S	2085	6.9	6	-3	-26	-3	-4
CCOC(=O)C1=NNC(=O)C1	3512	3.0	1	nt	-16	3	7
COc1cc(S(=O)(=O)Nc2cccc(C)c2)ccc1NC(=O)c1ccncc1	2438	5.8	-1	-21	-13	9	3
O=C(Nc1nnc(C2=COCCO2)o1)c1ccc(Br)cc1	5006	nt	nt	4	-1	nt	nt
O=C(COC(=O)/C=C/c1cccc([N+](=O)[O-])c1)Nc1cccnc1Cl	3511	2.5	4	nt	5	-2	7
N#Cc1c(N2CCCC2)nsc1-c1ccccc1	3323	5.9	25	-4	-44	-1	-3
CCN(CC)CCNC(=O)CCc1c(C)nc2c(c(C)nn2-c2ccc(C)cc2)c1C	3380	-2.4	-1	8	-7	-6	-3
S=C(NCc1ccc2c(c1)OCO2)NCc1ccc2c(c1)OCO2	2618	-5.1	9	11	0	4	-2
Oc1ccc(-[n+]2c(-c3ccccc3)cc(-c3ccccc3)cc2-c2ccccc2)cc1	3015	nt	nt	17	-5	nt	nt
CCN(c1ccccc1)S(=O)(=O)c1ccc(Cl)c(NC(=O)COC(=O)c2cccc(OC)c2O)c1	8445	5.1	-1	7	-18	-2	1
O=C(O)c1ccc(C(=O)c2cc([N+](=O)[O-])cc([N+](=O)[O-])c2)cc1	3561	12	0	nt	-24	11	6
N#CC(=NNc1cc(Cl)cc(Cl)c1)c1nnc2n1CCCCC2	nt	0.8	-12	nt	nt	16	4
Cc1nc(NS(=O)(=O)c2ccccc2)sc1C(=O)NNS(=O)(=O)c1ccccc1	6423	5.5	5	13	-4	5	7
O=C1c2ccccc2C(=O)C1c1ccc2ccccc2n1	?	12	-12	11	46	19	17
O=[N+]([O-])c1ccc(S(=O)(=O)Nc2nnc(C3CCCCC3)s2)cc1	3471	10	4	-8	-24	-1	-4
COc1ccc(OC)cc1	4093	0.7	7	nt	-2	nt	nt
O=C(COC(=O)c1ccc(Br)o1)Nc1ccc(F)cc1[N+](=O)[O-]	nt	9.9	9	nt	-14	5	9
O=C(CCCCCn1c(=O)[nH]c2ccsc2c1=O)N1CCCCC1	3846	6.7	17	-12	-7	6	1

(list continues)
SMILES	Autofluor counter	Sa RN4220 lethal	Sa ugtP lethal	BJeLR viability	PrP 5UTR inh	Mtb hypoxia inh	Mtb hypoxia inh growth
COc1ccc(N(C(C)C(=O)N/N=C/c2cc(Br)c(C)o2)S(C)(=O)=O)cc1 (stereo unspecified)	2553	nt	nt	8	-18	nt	nt
O=C(Nc1cc(S(=O)(=O)N2CCOCC2)ccc1N1CCOCC1)c1cc2c(s1)CCC2	4922	4.5	17	-8	-5	14	4
CS(=O)(=O)N1CCC(Oc2ccccc2C(=O)NC(C2CC2)C2CC2)CC1	3283	4.4	1	5	-20	7	2
O=C(Cc1ccc(NC(=O)C2CCN(C(=O)C3CCCCC3)CC2)cc1)Nc1cccc(C(=O)N2CCCCC2)c1	3886	4.2	3	nt	-13	-1	4
CCCn1nnnc1NCc1ccccc1F	3450	-3.1	-3	-17	-19	-2	-6
O=C(Cn1c2ccccc2c2nc3n(c(=O)c21)CCS3)Nc1ccccc1	nt	0.0	7	-11	-21	8	-11
CC(Sc1cnc2ccccc2n1)C(=O)O (stereo unspecified)	4331	6.2	9	3	-7	nt	nt
COc1ccc(S(=O)(=O)N2CCCCCC2)cc1C(=O)N(CC(C)C)C1CCS(=O)(=O)C1 (stereo unspecified)	?	2.3	0	10	-2	7	0
Cc1ccccc1C(=O)Nc1cc(C(F)(F)F)ccc1-n1cncn1	5770	2.7	5	nt	9	4	2
O=C(COc1c(F)c(F)cc(F)c1F)NC(=O)NC1CCCC1	7096	6.2	8	2	-28	5	-5
COCCCNC(=S)Nc1c(C)cc(C)cc1C	5957	3.8	4	3	-15	14	3
CCN1C(=O)NC(=Cc2ccc(Sc3ccc(C)cc3)o2)C1=O	nt	2.4	-11	nt	nt	2	14
Cc1ccc(N(C(=O)CNC(=O)c2ccco2)C(C(=O)NC2CCCCC2)c2ccncc2)cc1F (stereo unspecified)	3819	-1.1	0	-8	-13	-5	7
C#CCNC(=O)C1=CC(c2ccc(C(F)(F)F)cc2)C(CCCO)C(OCC)O1 (stereo unspecified)	nt	2.7&4.7	-2&-8	nt	nt	2&6	-4&9
O=C(CN1CCCc2ccccc21)NCCc1ccc(F)cc1	9239	2.3	10	0	-46	3	5
Cc1ccc(S(=O)(=O)NCC(=O)N(CC(=O)NCC2CCCO2)Cc2ccco2)cc1 (stereo unspecified)	4712	14	5	1	4	7	9
COc1cc(OC)cc(C(=O)NC(c2ccccc2)c2ccccc2)c1	4211	0.9	5	-5	-9	7	-3
CSc1nnc(-c2ccc([N+](=O)[O-])cc2)o1	3663	5.1	-2	-9	-21	10	18
O=C(NCCc1ccccc1F)C1CCC(=O)N(Cc2ccccc2F)C1 (stereo unspecified)	4961	2.8	4	3	-24	3	3
COc1ccccc1N=c1scc(-c2ccc3c(c2)NC(=O)CO3)n1CC1CCCO1 (stereo unspecified)	3192	0.8	-4	-5	-7	0	13
O=C(CSc1nc2[nH]c(=O)cc(O)c2s1)Nc1ccc(Br)cc1	4018	26	0	nt	-4	2	1
COc1ccc(N(CC(=O)Nc2cc(C)ccc2C)S(=O)(=O)c2ccccc2[N+](=O)[O-])c(OC)c1	5062	11	-9	-6	-5	-3	-1
COc1ccc(CCNC(=O)c2cc(CC(C)C)on2)cc1OC	6833	-14	4	1	0	1	7
c1ccc2sc(Sc3ncnc4sccc34)nc2c1	2197	13	-2	2	-14	9	2
Cc1ccc2[nH]cc(C(=O)CN3CCN(c4ccccc4F)CC3)c2c1	19645*	5.0	-13	-6	-25	0	1

More compounds follow:
SMILES	Autofluor counter	Sa RN4220 lethal	Sa ugtP lethal	BJeLR viability	PrP 5UTR inh	Mtb hypoxia inh	Mtb hypoxia inh growth
Cc1cc(C)c(NC(=O)C2c3ccccc3Oc3ccccc32)c(C)c1	2015	4.9	-10	8	-8	8	2
Cc1ccc(SCCC(=O)OCC(=O)Nc2ncc(Cl)cc2Cl)cc1	10875	2.9	-2	9	-15	6	5
O=C(NCc1cccnc1)c1cc2ccccc2oc1=O	22899*	1.4	2	6	-15	4	6
CC(C(=O)N1CCOCC1)c1ccccc1 (stereo unspecified)	3035	7.0	-2	nt	-9	-4	2
COc1ccc(-c2csc3nc(C)nc(N4CCC(C)CC4)c23)cc1OC	4540	-5.2	3	42	-13	-10	11
CC(=O)Nc1cccc(C(=O)NN=Cc2ccccc2F)c1	nt	1.6	-1	nt	nt	14	-3
COC(=O)C1=C(C)N(CCc2cc(OC)c(OC)c(OC)c2)C(=O)NC1c1ccccc1 (stereo unspecified)	nt	6.6	-3	nt	nt	9	7
Cc1cc(NN=Cc2ccc(Cl)cc2Cl)nc(NCc2ccccc2)n1	nt	-11	-10	nt	nt	-23	-22
Cc1cccc(-c2n[nH]c(=S)n2-c2ccccc2)c1[N+](=O)[O-]	2179	3.3	6	1	-82	3	-2
O=C(CN1CCN(c2ccc(O)cc2)CC1)Nc1cc(S(=O)(=O)N2CCOCC2)ccc1Cl	2358	3.3	-5	-10	0	-4	0
Cc1c(/C=N\NC(=O)C2(C)CC2(Cl)Cl)cnn1C (stereo unspecified)	2366	nt	nt	3	-25	nt	nt
COc1cc(C=NNC(=O)Cc2ccccc2)ccc1Oc1ccc([N+](=O)[O-])cc1[N+](=O)[O-]	nt	-3.1	-19	nt	nt	-7	-3
COc1cc(/C=N/NC(N)=O)ccc1OC(=O)c1cccs1	3987	nt	nt	-8	-27	nt	nt
